miR-21 reporter: qHTS Assay for Modulators of miRNAs and/orActivators of miR-21. HeLa miR-21 FLuc reporter, luciferase, 48 h. Potency, µM (doses to about 38.3 µM), for inactives: at the top dose reporter change, positive = more light. 340,000 tested, under 10 active. AID 2288, 2010; active = well fitted rising curve with a large enough effect; inconclusive = small, poorly fitted or top-dose-only effect; inactive = no such curve, though single readings can be large or run the other way;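 also: % of control where 0% means no effect; miR-21 action dims this reporter so a rising signal means less miR-21 action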
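HeLa cells stably expressing CMV-driven firefly luciferase with a downstream miR-21 binding sequence, endogenously expressing miR-21, were treated with titrations (up to about 40uM final) for 48 hours at 37 degree Celsius. Luciferase luminescence was read after lysis.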
GLA inh pH 4.5: qHTS Assay for Inhibitors of Human alpha-Galactosidase at pH 4.5; purified enzyme, 4-MU-alpha-Gal fluorescence, pH 4.5; Alpha-galactosidase A (Homo sapiens), P06280; activity change, negative = inhibition, % at 105 µM; 230,000 tested, under 10 active; inconclusive = small, poorly fitted or top-dose-only inhibition, or a rising curve; inactive = flat fitted curve, though single readings scatter; no compound was filed as active;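 also: 0% = full activity with enzyme and -100% = basal without enzyme; dose as in the result columns while the protocol names 77 µM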
Rango complex inh: qHTS Assay for Inhibitors of Rango (Ran-regulated importin-beta cargo) - Importin beta complex formation | Rango CFP/YFP FRET sensor + importin beta, 45 min | Potency, µM (series often up to 92.2 µM), for the others: top-dose inhibition of complex formation | 340,000 compounds, 0.031% hits; active = rising FRET ratio curve, often small or poorly fitted; inconclusive = mostly compound fluorescence or quenching in the first reads; inactive = flat curves in all reads;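 also: potency is read from the fitted curve at half-maximal effect; 0% = DMSO wells and 100% = buffer wells lacking importin beta; nearly all actives have a fitted effect of over 15% in size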
Target sequence (Q14974 whole entry, looked up): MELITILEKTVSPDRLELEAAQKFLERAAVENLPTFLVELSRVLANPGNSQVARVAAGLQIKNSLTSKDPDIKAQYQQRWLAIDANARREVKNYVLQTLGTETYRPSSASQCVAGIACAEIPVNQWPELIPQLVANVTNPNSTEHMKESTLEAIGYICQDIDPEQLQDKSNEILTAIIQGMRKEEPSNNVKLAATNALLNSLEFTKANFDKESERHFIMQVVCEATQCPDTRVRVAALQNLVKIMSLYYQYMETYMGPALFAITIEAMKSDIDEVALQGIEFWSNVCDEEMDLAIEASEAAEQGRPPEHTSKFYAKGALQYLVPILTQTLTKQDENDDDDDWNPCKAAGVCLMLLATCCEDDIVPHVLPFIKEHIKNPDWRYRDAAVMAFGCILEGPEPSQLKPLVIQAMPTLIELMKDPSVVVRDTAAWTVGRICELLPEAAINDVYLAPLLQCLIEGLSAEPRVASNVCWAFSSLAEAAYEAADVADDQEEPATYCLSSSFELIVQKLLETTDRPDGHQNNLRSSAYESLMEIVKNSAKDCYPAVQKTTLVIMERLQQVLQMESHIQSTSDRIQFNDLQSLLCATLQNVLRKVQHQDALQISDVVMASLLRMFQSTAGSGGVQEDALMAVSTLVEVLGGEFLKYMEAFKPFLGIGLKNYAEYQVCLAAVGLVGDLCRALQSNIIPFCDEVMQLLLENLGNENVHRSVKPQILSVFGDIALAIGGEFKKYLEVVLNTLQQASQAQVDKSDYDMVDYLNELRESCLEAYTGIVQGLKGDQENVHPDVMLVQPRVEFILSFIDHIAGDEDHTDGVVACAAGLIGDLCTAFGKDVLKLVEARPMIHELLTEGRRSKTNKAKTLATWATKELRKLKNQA
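FRET biosensor Rango (snurportin 1 IBB between N-terminal EYFP and C-terminal Cerulean), 50 nM in PBS/1 mM DTT/0.02% Tween-20/0.1% BSA, preincubated 5 min RT with compound; 0.125 microM importin beta added, 45 min RT, CFP/YFP FRET ratio read.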
Rango dissoc inh: qHTS Assay for Inhibitors of RanGTP induced Rango (Ran-regulated importin-beta cargo) - Importin beta complex dissociation; Snurportin-1 (Homo sapiens) + GTP-binding nuclear protein Ran (Homo sapiens) + Importin …; Biochemical FRET Rango-importin beta, RanGTP-induced dissociation; Potency, µM (highest dose often 46.1 µM), without a hit: top-dose activity change, negative = inhibition; 340,000 compounds, 0.071% hits; AID 540253, 2011; active means falling FRET ratio curve, often poorly fitted, with flat reads before Ran was added; inconclusive means other falling curves, or compound fluorescence or quenching; inactive means flat or rising ratio curve;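 also: potency is read from the fitted curve at half-maximal effect; % of control where 0% means no effect; nearly all actives have a fitted effect of over 45% in size; -100% = wells without RanGTP and RCC1; the record marks most hits as doubtful in a second field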
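Rango/importin beta premix (0.1/0.25 uM final), PBS + 1 mM DTT + 0.02% Tween-20 + 0.1% BSA; cpd 5 min RT; FRET pre-read; + RanGTP-RCC1 (0.6 uM Ran, 2 mM GTP, 0.2 uM RCC1); 45 min RT; FRET post-read, ex 430, em 486/530 nm.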
* hit, by the source's call; u = inconclusive; x = no result given; & = joins results of further samples. Some of the compounds tested. The share of hits here may be higher or lower than overall.

SMILES	miR-21 reporter	GLA inh pH 4.5	Rango complex inh	Rango dissoc inh
Cc1ccc(-c2cn(C[C@H]3CC[C@@H]([C@@H]4CC[C@H](Cn5cc(-c6ccc(C)cc6)nn5)O4)O3)nn2)cc1	0%	x	-0.8%	24%
COc1cccc(C2/C(=C(\O)c3c(C)nc4c(C)cccn34)C(=O)C(=O)N2CCCN(C)C)c1OC (centres undefined)	-5%	-4	x	x
Oc1ccc[n+](CC(O)c2ccccc2)c1 (centres undefined)	x	x	0.6%	8%
O=C(C1=C(O)C(=O)N(CCCn2ccnc2)C1c1ccccc1)c1ccco1 (centres undefined)	-1%	x	8.2%	20%
CNC[C@H](Cc1ccccc1)NC[C@@H](Cc1cccc2ccccc12)NCCc1ccc(C)cc1	u	x	-3.3%	-11%
Cn1c(SCC(=O)Nc2cccc(NC(=O)c3cccs3)c2)nnc1-c1ccncc1	1%	-9	u	-10%
Cc1nc2ncnn2c(C)c1CCC(=O)NCCCN1CCN(c2cccc(Cl)c2)CC1	-3%	0	-2.0%	0%
Cc1c(Cl)c(C(=O)NNC(=S)Nc2ccccc2)nn1C	-46%	1	1.8%	-8%
CN(CCC#N)c1ccc(/C=C(\C#N)c2ccccn2)cc1	-13%	-20	u	u
CCn1nc(C)c(/C=N/NC(=O)c2ccoc2C)c1C	-40%	9	1.1%	18%
CCOc1ccc2[nH]c(=O)c(CN(CCCO)C(C)=O)cc2c1	0%	7	-1.8%	-12%
CC(C)[C@H](NS(=O)(=O)c1cccc(C(F)(F)F)c1)C(=O)OCC(N)=O	-2%	-8	3.8%	7%
Nc1nc(C(=O)N2CCOCC2)nn1C(=O)c1ccc(Cl)cc1	-1%	1	-0.3%	14%
CCc1ccc(C(=O)OCC(=O)c2c(N)n(CC(C)C)c(=O)n(C)c2=O)cc1	22%	1	-0.2%	-1%
N#CC(c1ccccc1)(c1ncc(C(F)(F)F)cc1Cl)N1CCOCC1 (centres undefined)	0%	2	-0.8%	4%
O=C(Nc1ccc(F)cc1)C(Sc1nnc2ccccn12)c1ccccc1 (centres undefined)	3%	-7	1.0%	2%
COc1ccc(/C(N)=N/OC(=O)c2cccc([N+](=O)[O-])c2)cc1OC	0%	3	-0.8%	1%
COCCNC(=O)CSc1ncnc2sc(-c3ccccc3)cc12	-9%	2	2.5%	-6%
CC1CCN(CC(=O)Nc2ccc(S(=O)(=O)N3CCCCC3)cc2)CC1	-6%	x	-0.8%	4%
CC(C)Oc1ccc(CNC(=S)N/N=C/c2ccc([N+](=O)[O-])cc2)cc1	-14%	-1	-2.8%	6%
CN(C)c1c(F)cc(C(=O)NC(=O)NCc2cccnc2)cc1F	-2%	x	0.2%	2%
CN(C)c1nc(N)c2nccnc2n1	x	x	u	-14%
COc1ccc(CN(C(=O)c2cc(=O)c3ccccc3o2)C2CCS(=O)(=O)C2)cc1OC (centres undefined)	-7%&-11%	x	-2.5%	3%
O=C1CC(N2CCN(c3cccc(C(F)(F)F)c3)CC2)C(=O)N1c1ccc(F)cc1 (centres undefined)	-2%	-3	-0.5%	21%
C#CCOCCOCCOCCNc1nc(N2CCN(C(=O)[C@H](CCCCN)n3cc(C(N)CC(C)C)nn3)CC2)nc(N2CCN(C(=O)[C@H](CCC(=O)O)n3cc(C(N)[C@H](C)CC)nn3)CC2)n1 (some centres undefined)	0%	-7	-5.5%	-6%
O=C(NC1CCOCC1)C1CCC(=O)N(CCc2ccc(Cl)cc2)C1 (centres undefined)	3%	x	0.0%	-2%
CC(C)(C)OC(=O)CNC(=O)c1[nH]cnc1C(=O)NCCCCCNC(=O)OC(C)(C)C	u	x	-0.2%	7%
CC1CCC(=NNS(=O)(=O)c2ccc([N+](=O)[O-])cc2)CC1 (centres undefined)	x	x	-8.0%	-10%
COC(=O)c1sc(N2C(=O)c3oc4ccccc4c(=O)c3C2c2cccs2)nc1C (centres undefined)	-9%	-6	7.7%	17%
CCOc1ccc(C(CC(=O)O)NC(=O)c2cccs2)cc1 (centres undefined)	1%	6	-0.5%	-6%
CCCCC1=NC2(CCCC2)C(=O)N1Cc1ccc(-c2ccccc2-c2nn[nH]n2)cc1	-31%	6&0	x	x
O=S(=O)(NC1=NCCC1)c1cccc(NS(=O)(=O)c2ccc(F)c(Cl)c2)c1	x	x	-0.2%	u
O=C(CN(Cc1ccc(Cl)cc1)C(=O)c1csnn1)NCc1ccc(F)cc1	1%	x	-4.2%	-7%
CC(NC(=O)c1ccccc1[N+](=O)[O-])C1CC2CCC1C2 (centres undefined)	-13%	x	-1.4%	-2%
COc1cc(NC(=O)Nc2cccc(Cl)c2)c(C(=O)O)cc1OC	-4%	1	1.8%	7%
COc1ccc(OCC(O)Cn2c(N3CCCCC3)nc3c2c(=O)[nH]c(=O)n3C)cc1 (centres undefined)	0%	x	0.0%	-9%
CCN(C(=O)COC(=O)c1ccc(Br)o1)C1CCCCC1	-4%	-7	-1.4%	-1%
COc1ccc(C(=O)N/N=C/c2c[nH]c3ccccc23)cc1	-26%	x	-2.0%	-2%
CC(=O)Nc1cccc(CCc2nc3ccccc3[nH]2)c1	-29%	x	-1.3%	4%
O=C(N/C(=C/c1ccccc1)C(=O)N1CCCCC1)c1ccccc1	-37%	x	-0.4%	0%
COC(=O)c1ccc(-c2csc(NC(=O)C3=COCCO3)n2)cc1	x	x	0.1%	2%
Cc1cccc(-n2c(SCc3cc(=O)n4c(C)cccc4n3)nc3[nH]ncc3c2=O)c1	-4%	-1	x	x
CCCCN(C)C(=S)Nc1ccc2nc(N3CCN(CC)CC3)cc(C)c2c1	-53%	0	4.3%	-10%
CC1CCCN(C(c2cccs2)c2nnnn2Cc2ccccc2)C1 (centres undefined)	1%	-11	0.1%	8%
CC(=O)n1nc(-c2ccncc2)nc1SCC(=O)Nc1cccc(Cl)c1	-6%	x	0.0%	2%
CN1CCNC(=O)C1CC(=O)O (centres undefined)	0%	0	5.2%	-15%
CCCn1c(CCC(=O)O)nc2cc(S(=O)(=O)N3CCCC3)ccc21	-2%	4	u	-30%
O=C(CN1CCN(c2ccccn2)CC1)Nc1ccccc1F	-5%	x	0.1%	0%

Entries of single compounds as entered above.
`CCCn1c(CCC(=O)O)nc2cc(S(=O)(=O)N3CCCC3)ccc21` in the list: miR-21 reporter = -2%; GLA inh pH 4.5 = 4; Rango complex inh = u; Rango dissoc inh = -30%
`COc1ccc(C(=O)N/N=C/c2c[nH]c3ccccc23)cc1` in the list: miR-21 reporter = -26%; GLA inh pH 4.5 = x; Rango complex inh = -2.0%; Rango dissoc inh = -2%
`CCN(C(=O)COC(=O)c1ccc(Br)o1)C1CCCCC1` in the list: miR-21 reporter = -4%; GLA inh pH 4.5 = -7; Rango complex inh = -1.4%; Rango dissoc inh = -1%

Further results follow:
SMILES	miR-21 reporter	GLA inh pH 4.5	Rango complex inh	Rango dissoc inh
Cc1ccc(NC(=O)C(=O)c2ccc(C)cc2)cc1	-71%	x	-2.3%	-3%
CN(C)CCNc1oc(-c2ccccc2F)nc1C#N	-1%	3	0.4%	0%
Cc1cc(/C=C2\SC(=S)N(C)C2=O)c(C)n1-c1cccc(O)c1	-52%	-14	u	u
CCOC(=O)C1=C(c2ccccc2)NC(=O)NC1c1ccc(O)c(Cl)c1 (centres undefined)	18%	x	-2.4%	-3%
COc1ccc(S(=O)(=O)N(C)CC(=O)Nc2ccc(F)cc2)cc1	0%	12	2.0%	7%
N#CC(=C=[N-])c1nc2ccccc2nc1-[n+]1ccccc1	6%&-3%	-6&1	u	u
Cc1cc(C)n(C(=O)CCCCCCCCC(=O)n2nc(C)cc2C)n1	1%	-17	0.7%	6%
Cc1ccc(Sc2c([N+](=O)[O-])c(=O)n(C)c3ccccc23)cc1	7%	x	3.5%	8%
CC(C)Cn1c2ccccc2c2cc(C(=O)O)ccc21	0%	5	-2.9%	20%
CCOC(=O)c1[nH]c(C)c(C(=O)Nc2ccc(C)c(F)c2)c1C	10%	7	1.4%	11%
COc1ccccc1NC(=O)c1ccc2c(c1)N(CC(=O)NC(C)C)C(=O)C(C)(C)O2	8%	x	3.0%	-3%
O=C(O)COc1ccccc1C1C2C(=O)N(c3ccccc3)C(=O)C2ON1c1ccccc1 (centres undefined)	-13%	-3	-0.3%	0%
C[C@H](N)C(=O)OCc1ccc([N+](=O)[O-])cc1	0%	5	-1.0%	21%
O=C(Cn1cc(C(=O)c2cccs2)c2ccccc21)NC1CCCCC1	9%	-7	0.2%	-7%
CN(C(=O)c1ccc(NC(=O)C2CCCN(C(=O)OC(C)(C)C)C2)cc1)C1CCCCC1 (centres undefined)	x	x	-1.3%	-14%
COc1ccccc1CNC(=O)COC(=O)CCC(=O)c1cccs1	-7%	2	-1.9%	-8%
COc1ccc(CN2C3CCCC2CC(NC(=O)Nc2cccc(C)c2)C3)cc1 (centres undefined)	1%	-2	-4.5%	3%
CCOc1ccc(CC(=O)NNC(=S)Nc2ccccc2)cc1Br	-7%	-5	-3.7%	1%
Cc1ccc(S(=O)(=O)c2c(CO)c(-c3ccccc3)nn2C)cc1	20%	8	2.1%	-5%
O=C(c1ccc(S(=O)(=O)c2ccc(Cl)cc2)cc1)N1CCOCC1	-1%	3	0.0%	-4%
C/C(Cn1nnc([N+](=O)[O-])n1)=N\NC(=O)c1ccccc1	20%	2	-1.8%	-6%
CN(CCNC(=O)C1CCCN(c2ncnc3c2nc2n3CCCCC2)C1)Cc1ccccc1 (centres undefined)	5%	x	0.7%	1%
CC(=O)c1c(C)n(CCc2ccc(Cl)cc2)c2ccc(O)cc12	-8%	x	-2.6%	7%
CN(Cc1ccccc1)C(=O)CN(Cc1ccccc1)S(C)(=O)=O	-4%	-4	-2.3%	0%
FC(F)(F)c1nc(SCc2ccccc2)n[nH]1	x	x	0.9%	15%
O=C(COC(=O)/C=C/c1ccccc1)Nc1nnc(-c2ccccc2)o1	x	x	1.3%	-3%
CCC1SC(C)C/C(=N/NC(N)=O)C1C (centres undefined)	-1%	-5	5.1%	-4%
O=C(O)c1c2c(nc3ccccc13)/C(=C/c1ccc(OC(F)F)cc1)CCC2	-90%	x	u	-14%
Cc1nnc(SCC(=O)NC(C)(C)C)n1NCc1ccc(N(C)C)cc1	4%	x	0.8%	10%
COc1cc2ccc(=O)oc2cc1O	x	u	u	u
N#C/C(=C/c1ccc(F)cc1)S(=O)(=O)c1ccccc1	1%	-4	2.1%	-10%
COc1ccc(-c2nc3cc(C)ccn3c2NC2CCCCC2)cc1SC1CCCCC1	x	x	0.3%	-13%
Cc1ccc(-c2c3c(=O)n(C)c(=O)n(C)c3cn2CCCN2CCOCC2)cc1	-3%	2	1.9%	11%
Cc1cc(C(=O)CSc2nncs2)c(C)n1-c1ccc2c(c1)OCO2	-22%	-1	0.8%	-1%
Cc1cc(C)cc(NC(=O)c2cc(C)nn2C)c1	-19%	5	-0.4%	29%
COc1ccc(Cl)cc1NS(=O)(=O)c1cccc(C(=O)NCC2CCCO2)c1 (centres undefined)	-2%	x	0.1%	-9%
O=C1c2cccc3cccc(c23)C(=O)N1CCCN(C(=O)c1cccs1)c1cccc(F)c1	-8%	1	5.9%	11%
Cc1ccc2c(c1)NCCO2	-3%	4	-0.1%	2%
CCN(Cc1ccncc1)Cc1ccc(OC)cc1OC	-2%	x	2.6%	-3%
COC(=O)c1ccc(CNC(=O)C23CC4CC(CC(C4)C2)C3)cc1	4%	x	3.8%	9%
COc1ccc(NC(=O)CN(C)C(=O)c2cccc3ccccc23)cc1	x	x	-3.4%	-17%
COc1ccc(C(=O)NC(=S)N2CCOCC2)cc1OC	-1%	-6	3.3%	1%

Compound activity: PubChem, National Center for Advancing Translational Sciences (NCATS)
